eIF4H inh: inhibitors of RNA binding by human eIF4H. Q15056. eIF4H fluorescence polarization binding assay. inhibition, % at 35 µM. 0.94% of 290,000 active. AID 2012;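 active = 50% or more with normal probe brightness, or confirmed in later tests; about a fifth of its hits are not listed in these tables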;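 also: calls also rest on retests at 20 µM and on dose response follow-up; 0% = protein and probe with vehicle and 100% = probe without protein; strong numbers were not always called active; many hits fall short of the cut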
CSC inhib: blocks cancer stem cells; cancer stem cell-like cells viability, luminescence; inhibition, % at 7.5 µM; 1.1% of 300,000 active; AID 2717;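 active = mean at 75% or more and at least half the replicates too; tested in HMLE shEcad cells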;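 also: 0% = median of negative and 100% = median of positive control wells; the first replicate is given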
Env fusion inh: inhibitors of HIV Env-mediated cell fusion; inhibition, % at 12.3 µM; 1.1% of 360,000 active; HeLa-JRFL Env/CEM21 cell fusion, luciferase;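 active = mean replicate inhibition score of at least 50 and every replicate individually at or above 50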;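 also: 0% = plate neutral controls and 100% = maraviroc near 300 nM; one replicate is shown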
MT1-MMP act inh: blocks activation of human MT1-MMP | P50281 | HT1080 RFP-PRO-GFP cells, GFP/RFP ratio fluorescence, overnight; percent of plate control window, DMSO zero | GFP/RFP ratio change, % at 20 µM | 0.061% of 360,000 active | AID 651647;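 active = GFP/RFP ratio change of at least 30% with cell ATP level not reduced by more than half and red fluorescence within 50% of control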; also: strong numbers were not always called active
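Material: RFP-PRO-GFP reporter HT1080 cells. Dosing: single-point 20 µM compound, 1% DMSO. Controls: DMSO and RFP-L50D-GFP cell wells. Timing: cells overnight before dosing, compound overnight, 37 °C, 5% CO2. Measure: GFP/RFP fluorescence ratio.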
PABP FP inh: PABP-poly(A) binding inhibition; P11940; PABP-poly(A) RNA binding, fluorescence polarization; inhibition, % at 35 µM; 1% of 290,000 active; AID 2014;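 active = 50% or more with normal probe brightness, or confirmed in later tests; about a fifth of its hits are not listed in these tables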;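 also: calls also rest on retests at 20 µM and on dose response follow-up; controls were probe without protein and protein plus probe with vehicle; some compounds called inactive have numbers as strong as hits; many hits fall short of the cut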
Rce1 inhib: inhibitors of yeast Ras-converting enzyme. calls only. yeast membranes, quenched prenylated peptide cleavage fluorescence. 0.27% of 290,000 active. Q03530. AID 2563;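 active = fall in fluorescence gain of 50% or more versus controls, with final raw signal at or below 3038400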;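 also: plate controls were neutral control wells for no effect and wells lacking membranes for full effect; tested at 10 µM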
Target sequence (Q03530 whole entry, looked up): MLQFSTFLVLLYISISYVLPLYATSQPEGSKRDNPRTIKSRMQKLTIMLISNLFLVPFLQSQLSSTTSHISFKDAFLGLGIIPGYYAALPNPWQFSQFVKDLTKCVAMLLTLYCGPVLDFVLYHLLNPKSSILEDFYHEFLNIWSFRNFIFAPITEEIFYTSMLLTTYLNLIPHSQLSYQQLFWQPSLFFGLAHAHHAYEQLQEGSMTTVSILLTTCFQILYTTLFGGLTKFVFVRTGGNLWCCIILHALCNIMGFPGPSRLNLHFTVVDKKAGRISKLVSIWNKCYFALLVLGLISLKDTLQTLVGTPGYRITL
Yeast UUG start: alters start codon recognition fidelity in yeast | AID 602363 | activity score, % at 18.7 µM | S. cerevisiae UUG-firefly luciferase reporter, luminescence/redox ratio | 0.13% of 350,000 active;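 active = replicate mean at a twofold rise or more, about +100% in these data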;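 also: firefly luciferase made from a UUG start codon reports start codon fidelity; reporter light over untreated wells divided by growth signal over untreated wells; some hits fall short of that in this replicate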
eIF4H inh retest: recorded beside eIF4H inh, whose call it bears; inhibition, %; compound at 20 µM; confirmation average;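 mean of two retest wells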
PABP FP inh retest: further read-out of PABP FP inh, marked with its call; inhibition, %; compound at 20 µM; confirmation repeats;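 mean of two retest wells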
MT1-MMP act inh RFP: also measured in MT1-MMP act inh; calls as there; RFP signal change, %; measured here: RFP expression control read;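 0 = vehicle wells; hits needed this value within 50% of zero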
An asterisk follows results filed as active; i = inactive; x = no result given; & = joins results of further samples; [ ] = remark or other dose. Not all compounds are listed (hit frequency here may not be typical).

SMILES	eIF4H inh	CSC inhib	Env fusion inh	MT1-MMP act inh	MT1-MMP act inh RFP	PABP FP inh	Rce1 inhib	Yeast UUG start	others
Cc1nc2sc(C(=O)Nc3ccccc3Cc3ccccc3)c(C)c2c(=O)[nH]1	3	-12	10	4	1	0	i	-13
Cc1ccc(NC(=O)Nc2nnc(-c3ccccc3F)s2)cc1	-7	-2	-26	3	0	-4	i	x
CN(C)C(CNC(=O)c1ccc(C(F)(F)F)cc1)c1ccco1 (stereo not drawn)	0	-9	4	0	4	2	i	-20
CC(C)[C@H](N)c1nnc(SCc2ccc(Cl)cc2)o1	-1	7	-17	5	4	9	i	-5
CC(C)C[C@H](NC(=O)CCCn1nnc2ccccc2c1=O)C(=O)O	2	-2	1	1	5	-12	i	-1
Cc1cccc2nc(-c3cccnc3)c(Nc3ccccc3)n12	2	-6	-3	0	-11	12	i	-15
CCOC(=O)N1CCC(NC(=O)CCCC(=O)O)CC1	-6	-20	-21	1	0	-3	i	-11
Cc1noc(C)c1CN1C(=O)c2cccc([N+](=O)[O-])c2C1=O	-11	-8	18	2	5	-5	i	-15
COc1ccccc1NC(=O)N(C1CCCC1)C1CCN(C(C)=O)CC1	-16	-12	-4	0	2	-12	i	0
Cc1cc(C)n(CC(=O)c2ccccc2)c(=O)c1C#N	0	-7	-20	-10	2	4	i	-7
Cc1cccc(C(=O)Nc2cccc(C(=O)Nc3cc(C)ccn3)c2)c1	1	-3	x	-2	-3	-2	i	-27
CCOC(=O)c1ccc(NC(=O)CSc2nnnn2CCCO)cc1	-1	-17	-50	2	0	1	i	-23
Cc1oc(-c2ccccc2F)nc1CN1CCC(C(=O)NC2CC2)CC1	-2	-13	-20	-3	2	13	i	-14
Cc1ccc(S(=O)(=O)N2CCOCCOCCOCCOCCOCC2)cc1	-2	4	-3	-2	5	4	i	-13
OCCNc1nc(-c2ccccc2)c2cc(Br)ccc2n1	-1	1	4	-1	5	3	x	0
COc1ccc(NC(=O)CN(C)C(=O)c2ccc(COc3ccccc3)o2)cc1	x	-3	x	0	2	x	i	-18
Cc1cc(C(=O)N2CCCC2)n[nH]1	-6	x	-2	-2	2	-17	i	-13
COc1cc(OC)c(C(=O)NNC(=O)c2ccccc2-n2cccc2)cc1OC	x	18	-1	5	1	x	x	4
CC(=O)O[C@@H](C[C@@H](C)C1=C2C[C@H](O)C3[C@@]4(C)CCC(=O)C(C)(C)C4CC[C@]3(C)[C@@]2(C)CC1)[C@H]1OC1(C)C (stereo partly drawn)	x	x	-12	-12	-17	x	x	14
O=C1[C@H](Cc2ccccc2)NCC=CC[C@@H](c2ccc(Cl)cc2)N1Cc1ccccc1	x	x	-18	-2	-3	x	x	-14
CC1CCCN(C(=O)CCCn2c(=S)[nH]c3ccccc3c2=O)C1 (stereo not drawn)	-4	-17	13	-5	3	-8	i	5
COc1cc(C(=O)ON=C2C=C(C)C(=O)C(C)=C2)cc(OC)c1OC	-2	35	-1	-20	12	0	i	x
O=C(C[n+]1cc(Br)cc(Br)c1)c1cccc([N+](=O)[O-])c1	-6	6	31	0	-2	3	x	x
COc1ccc(NC(=S)NCc2cccs2)cc1	-3	x	-14	2	5	-6	i	x
Cc1ccc(CC(NC(=O)c2ccccc2)C(=O)NC(Cc2ccccc2)C(=O)O)cc1 (stereo not drawn)	0	7	11	7	3	10	i	-2
(more compounds)
SMILES	eIF4H inh	CSC inhib	Env fusion inh	MT1-MMP act inh	MT1-MMP act inh RFP	PABP FP inh	Rce1 inhib	Yeast UUG start	others
COc1ccc(CN2CC[C@@H](N3CCOCC3)[C@H](O)C2)cc1F	-12	-9	1	0	6	2	i	-13
COc1ccc([C@H]2CC(=O)C=C(c3ccc(C)c4ccccc34)C2)cc1	x	57	-10	-5	-4	x	x	-12
CC(O)(c1ccccc1)c1nc(-c2cc3ccccc3o2)cs1 (stereo not drawn)	x	x	24	-6	-23	x	x	-10
CCOC(=O)C(/C=C(\C#N)C(=O)OCC)=C(/N)N1CCN(c2ccc(Cl)cc2)CC1	-2	11	x	5	-1	25	i	33
Cc1ccc(NC(=O)CS(=O)CC(=O)N(CC(=O)NC2CCCC2)c2cccc(C)c2C)cc1 (stereo not drawn)	-6	0	-114	3	-3	-5	i	13
CCOC(=O)N1CCN(C(=O)c2ccc(OCC)c(OCC)c2)CC1	-2	-2	x	4	2	24	i	-2
O=S1(=O)CCN(Cc2ccc(Cl)c(Cl)c2)CC1	-9	-4	x	-1	-1	-5	i	-14
Cc1ccc(S(=O)(=O)Nc2ccc(S(=O)(=O)NCC3CCCO3)cc2)cc1 (stereo not drawn)	-10	0	1	1	-3	11	i	2
COC(=O)c1ccc(CNC(=O)c2ccc(NS(=O)(=O)c3ccc4[nH]c(=O)[nH]c4c3)cc2)cc1	x	-12	-26	-8	6	x	i	9
Nc1ccc(C(=O)N/N=C/c2cccc(Oc3ccccc3)c2)cc1	-9	28	-12	-5	-3	4	i	3
Cc1cccc(C)c1OCC(=O)NNC(=O)c1ccoc1C	5	-3	x	-4	5	12	i	x
O=C1C2C3C=CC(C3=C3CCCCC3)C2C(=O)N1Cc1ccccc1 (stereo not drawn)	-1	10	-8	2	-5	-6	i	-17
COc1ccc(C(=O)N2CCN(S(=O)(=O)c3ccc4c(c3)OCCO4)CC2)cc1	x	x	4	3	-2	x	x	-18
c1ccc(CCc2cc3ccccc3[nH]2)cc1	x	16	-32	3	6	x	x	-8
Cc1ccc([N+](=O)[O-])cc1NC(=O)c1ccc2c(c1)OCO2	4	-8	6	1	3	3	x	x
COc1ccc2[nH]c(=O)c(CN(C(=O)NC3CCCCC3)C3CCCCC3)cc2c1	-5	-15	-88	-36	-29	-1	i	1
COc1ccc([N+](=O)[O-])cc1NC(=O)c1ccc(C)o1	-5	-11	11	-1	5	5	i	x
CC(=O)Nc1ccc(NC(=O)c2ccc(NS(=O)(=O)c3cccc4cccnc34)cc2)cc1	-5	0	-7	0	-1	-1	i	-13
Cc1ccsc1C(=O)Nc1nnc(-c2ccco2)o1	-5	-10	9	11	4	-1	i	-18
O=C(NC1CCCCC1)C(c1ccccc1)N(Cc1cccnc1)C(=O)c1csnn1 (stereo not drawn)	0	-11	6	3	1	8	x	-13
O=C(NCCc1nc(-c2ccccc2)cs1)c1ccc(Br)cc1	1	13	x	-1	-9	-9	i	-15
COc1ccc(-c2coc3cc4oc(=O)c(CC(=O)O)c(C)c4cc23)cc1	-4	x	-16	4	1	12	i	-13
COc1cc(/C=C2/SC(=S)N(Cc3ccccc3)C2=O)ccc1O	-1	100*	-24	-34	59	-12	i	-12
COc1ccccc1C(=O)Nc1ccc2c(c1)nc(CN1CCN(C(C)=O)CC1)n2C	-9	-9	3	7	8	-1	i	-24
CN(C)S(=O)(=O)c1ccc(Cl)c(NC(=O)CN2CCCCCC2)c1	-6	23	-9	1	-2	-8	i	x

13 neighbouring entries out of the list so far, quoted:
SMILES	eIF4H inh	CSC inhib	Env fusion inh	MT1-MMP act inh	MT1-MMP act inh RFP	PABP FP inh	Rce1 inhib	Yeast UUG start	others
CC(O)(c1ccccc1)c1nc(-c2cc3ccccc3o2)cs1 (stereo not drawn)	x	x	24	-6	-23	x	x	-10
CCOC(=O)C(/C=C(\C#N)C(=O)OCC)=C(/N)N1CCN(c2ccc(Cl)cc2)CC1	-2	11	x	5	-1	25	i	33
Cc1ccc(NC(=O)CS(=O)CC(=O)N(CC(=O)NC2CCCC2)c2cccc(C)c2C)cc1 (stereo not drawn)	-6	0	-114	3	-3	-5	i	13
CCOC(=O)N1CCN(C(=O)c2ccc(OCC)c(OCC)c2)CC1	-2	-2	x	4	2	24	i	-2
O=S1(=O)CCN(Cc2ccc(Cl)c(Cl)c2)CC1	-9	-4	x	-1	-1	-5	i	-14
Cc1ccc(S(=O)(=O)Nc2ccc(S(=O)(=O)NCC3CCCO3)cc2)cc1 (stereo not drawn)	-10	0	1	1	-3	11	i	2
COC(=O)c1ccc(CNC(=O)c2ccc(NS(=O)(=O)c3ccc4[nH]c(=O)[nH]c4c3)cc2)cc1	x	-12	-26	-8	6	x	i	9
Nc1ccc(C(=O)N/N=C/c2cccc(Oc3ccccc3)c2)cc1	-9	28	-12	-5	-3	4	i	3
Cc1cccc(C)c1OCC(=O)NNC(=O)c1ccoc1C	5	-3	x	-4	5	12	i	x
O=C1C2C3C=CC(C3=C3CCCCC3)C2C(=O)N1Cc1ccccc1 (stereo not drawn)	-1	10	-8	2	-5	-6	i	-17
COc1ccc(C(=O)N2CCN(S(=O)(=O)c3ccc4c(c3)OCCO4)CC2)cc1	x	x	4	3	-2	x	x	-18
c1ccc(CCc2cc3ccccc3[nH]2)cc1	x	16	-32	3	6	x	x	-8
Cc1ccc([N+](=O)[O-])cc1NC(=O)c1ccc2c(c1)OCO2	4	-8	6	1	3	3	x	x

(listing goes on)
SMILES	eIF4H inh	CSC inhib	Env fusion inh	MT1-MMP act inh	MT1-MMP act inh RFP	PABP FP inh	Rce1 inhib	Yeast UUG start	others
Nc1nnnn1/N=C/c1ccccc1OCc1ccccc1	0	2	-8	1	1	1	i	-18
N#CCCN(CCC#N)C(=S)NC1CC2C=CC1C2 (stereo not drawn)	-6	x	4	4	-1	8	i	x
N#CCCN1CCN(C(=S)c2ccc(-c3ccc(Cl)cc3)o2)CC1	33	-7	x	-4	-1	67	i	-7	eIF4H inh retest=-3;PABP FP inh retest=6
C[C@H](CO)N1C[C@H](C)[C@@H](CN(C)C(=O)Nc2ccccc2)Oc2ccc(NS(=O)(=O)c3cn(C)cn3)cc2C1=O	x	-14	9[16.7 µM]	2	4	x	x	-4&-11
CCN1C(=O)/C(=c2\o/c(=C3\C=Cc4ccccc4N3CC)c(=O)n2CC)SC1=S	-17	x	x	25	2	-9	i	-14
COc1ccc(N(CC(=O)NC(C)(C)C)C(=O)CCC(=O)Nc2nccs2)cc1	-5	-7	3	-2	3	-9	i	-11
CC1(C)CC(=O)C=C(c2n[nH]nc2-c2ccc(F)c(F)c2)C1	x	x	25	-3	-1	x	x	-20
CC1(c2cccc(Br)c2)NC(=O)N(CC(=O)Nc2ccc3c(c2)OCO3)C1=O (stereo not drawn)	x	x	2	-2	-2	x	x	9
COCCN1Cc2cccc(C(=O)NC(C)CCc3ccco3)c2C1=O (stereo not drawn)	4	-3	0	-7	-4	18	i	x
CC(=O)Nc1sc2c(c1C(c1ccc(Cl)cc1)N1CCOCC1)CCCC2 (stereo not drawn)	-2	0	x	-11	-6	2	i	-39
Cc1cc(SCC(=O)OCC(=O)N(C)c2ccccc2)nc2ccccc12	x	3	-4	4	3	x	i	x
CC1CC(C)CN(S(=O)(=O)c2ccc3c(c2)NC(=O)C(C)C(=O)N3)C1 (stereo not drawn)	-14	-6	-17	-2	-2	-3	i	-6
O=C(CSc1cn(CCNC(=O)c2ccccc2)c2ccccc12)NCC1CCCO1 (stereo not drawn)	-12	-7	9	2	-3	-13	i	22
C=CCn1c(Cc2ccc(OC)cc2)nnc1SCC(=O)NCCc1ccccc1	-1	-7	-17	5	5	-6	i	-20
CC1(C)CC(=O)CC(C)(C)N1OC(=O)c1ccco1	-2	-10	23	-9	-2	-9	i	-3
CN1CCN(S(=O)(=O)c2cc([N+](=O)[O-])ccc2N/N=C/c2ccc(Cl)cc2)CC1	-1	-12	10	-1	0	-10	i	3
CN(Cc1ccc2nonc2c1)Cc1nc(Cc2cccc(F)c2)no1	2	-8	-11	10	3	-1	i	x
O=C(O)C1CCN(C(=O)CSc2nc3cc(Cl)ccc3c(=O)n2Cc2ccccc2)CC1	-12	-11	8	4	-3	12	x	-5

Bioassay records deposited in PubChem by several laboratories.
